MgrA-DNA mod: S. aureus MgrA-DNA binding modulation; fluorescence polarization; inhibition, %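 (about 10 µg/mL by stock and volumes)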; hit rate 0.13% among 84,000; AID 602314;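 active = above 50% in either of two replicates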;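 note: 0% = protein plus DNA without compound and 100% = DNA alone without protein; higher means less MgrA bound to DNA so lower polarization; one replicate is shown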
S aureus helic: S. aureus DNA helicase inhibition | purified S. aureus helicase, fluorescence unwinding assay; about half of the hits fall short of the stated cut | AID 485395 | inhibition, %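 (tested at about 80 µM)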 | hit rate 0.05% among 120,000;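 active = both duplicates at 50% or more, or one of them with a favoured structure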;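 note: 0% = mean of negative control wells and 100% = mean of positive control wells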
* = called active by the depositor; nt = no result given; & = joins results of further samples.

SMILES | MgrA-DNA mod | S aureus helic
CCc1noc(C)c1C(=O)N1CCc2ccccc21 | nt | -10
O=C1CCCC2=C1C(c1ccccc1)CC(=O)N2c1ccc(F)cc1 (stereo unspecified) | -1.1 | 11
O=C(COc1ccccc1)N1CCN(c2ncccn2)CC1 | nt | -3
CCOC(=O)c1ccc(N=C2NC(=O)/C(=C/c3ccc(N4CCOCC4)cc3)S2)cc1 | 2.5 | -9
CN(CC(=O)Nc1ccc(SC(F)F)cc1)C1CCCCC1 | nt | 11
COc1ccc(CC(=O)NNC(=S)NCC2CC2)cc1OC | 0.1 | nt
Cc1cccc(-c2nc3sc4c(c3c(=O)[nH]2)CCCC4)c1 | 1.7 | 2
Cc1ccccc1N(C)C(=O)c1ccc2c(=O)n3c(nc2c1)CCCCC3 | nt | 14
O=C(Nc1ccccc1N1CCOCC1)c1sc2ccccc2c1Cl | -0.6 | nt
COc1cc(C2Nc3ccccc3-c3nc4ccccc4n32)cc(OC)c1OC (stereo unspecified) | nt | -2
O=C(c1cccnc1)N1CCC2(CC1)OCCO2 | -1.8 | 13
Cc1ccc2[nH]c3nc(=S)[nH]nc3c2c1 | nt | 33
Cc1ccc(N2CCN(/N=C\C=C\c3ccccc3)CC2)cc1 | 1.2 | 12
CCOc1ccccc1CNC(=O)C(C)n1ncn2cccc2c1=O (stereo unspecified) | nt | 14
O=C(NCC1CCC(C(=O)Nc2ccc3c(c2)OCO3)CC1)c1ccc(=O)[nH]c1 (stereo unspecified) | -1.6 | -2
O=c1[nH]c(CSc2ccccn2)nc2c1oc1ccccc12 | -0.5 | -1
Cn1ccnc1C(O)c1ccc2c(c1)OCO2 (stereo unspecified) | 2.6 | 3
O=C(Oc1ccc2sc(=O)oc2c1)c1cccs1 | 1.1 | 10
CN(CCO)c1nc2cc(Cl)ccc2s1 | 0.7 | nt
O=C1C(NS(=O)(=O)c2ccccc2)=C/C(=N\S(=O)(=O)c2ccc(F)cc2)c2ccccc21 | 3.3 | 13
CSc1nnc(CSc2nc(C)cc(C)n2)n1-c1ccc(F)cc1 | nt | 11
O=S(=O)(NC1CCCCC1N1CCCCC1)c1ccccc1 (stereo unspecified) | nt | -16
Cn1c2ccccc2c2cc([N+](=O)[O-])ccc21 | 1.8 | nt
O=c1[nH][nH]c(=S)n1-c1cccc(F)c1 | nt | 8
CC(C)N(C(=O)COc1ncnc2ccc(Br)cc12)C(C)C | nt | -7

Some of these compounds in order of their number in S aureus helic, smallest number first.
Compound | MgrA-DNA mod | S aureus helic
O=S(=O)(NC1CCCCC1N1CCCCC1)c1ccccc1 (stereo unspecified) | nt | -16
CCOC(=O)c1ccc(N=C2NC(=O)/C(=C/c3ccc(N4CCOCC4)cc3)S2)cc1 | 2.5 | -9
O=C(NCC1CCC(C(=O)Nc2ccc3c(c2)OCO3)CC1)c1ccc(=O)[nH]c1 (stereo unspecified) | -1.6 | -2
Cc1cccc(-c2nc3sc4c(c3c(=O)[nH]2)CCCC4)c1 | 1.7 | 2
Cn1ccnc1C(O)c1ccc2c(c1)OCO2 (stereo unspecified) | 2.6 | 3
Cc1ccccc1N(C)C(=O)c1ccc2c(=O)n3c(nc2c1)CCCCC3 | nt | 14

The listing continues.
SMILES | MgrA-DNA mod | S aureus helic
C/C(N)=C(/C#N)C(=O)CSc1cccc(C(F)(F)F)c1 | nt | 26
Cc1cc2cc(CNC(=O)C34CC5CC(CC(C5)C3)C4)ccc2[nH]1 | -0.1 | 15
CC1CCC(NC(=O)c2ccc(CS(C)(=O)=O)cc2)CC1 (stereo unspecified) | nt | -12
O=C=NC(Cl)(c1ccccc1)C(F)(F)F (stereo unspecified) | -1.8 | -21
CCCNc1nc(Cl)nc(NCC(=O)OCC)n1 | 0.5 | 14
O=C(CCC(=O)c1ccc2c(c1)OCCCO2)OCc1nc2ccccc2o1 | nt | 4
O=S1(=O)N=C(N2CCNCC2)c2ccccc21 | -2.3 | 11
CCCCc1nnc(NC(=O)Nc2ccc(C)cc2)s1 | -0.5 | 5
Cn1ccnc1Sc1cnc(=S)[nH]c1-c1ccc(Cl)cc1 | nt | 26
CC(C)OC(=O)CSc1nnc(-c2ccc(N(C)C)cc2)o1 | nt | 16
Cc1ccc(C(=O)NCCn2ccc3ccccc32)cc1 | 0.3 | 13
Cc1ccc(C)c(CN2C(=O)C(C(C)C(=O)NCc3ccc4c(c3)OCO4)Sc3ccccc32)c1 (stereo unspecified) | 0.1 | 9
N#Cc1ccccc1NC(=O)CN1CCCC1 | -0.3 | 18
Oc1ccccc1Oc1c(F)c(F)nc(N2CCOCC2)c1F | nt | 1
Cc1ccc(C(=O)c2cc3ccccc3o2)cc1C | nt | -3
NC1(C2CCCCC2=O)CCCCC1 (stereo unspecified) | -0.2 | -5
FC(F)(F)c1ccc(-n2ccnc2)nc1 | -1.1 | nt
O=C(NCc1ccccc1)C(Cc1ccccc1)N1C(=O)c2ccccc2C1=O (stereo unspecified) | 1.9 | 8
COc1ccc(C2=NOC(C(=O)Nc3ccc(C)cc3)C2)cc1 (stereo unspecified) | -0.8 | 12
Cc1cccc(-n2c(CNC(=O)COc3ccc(Cl)cc3)n[nH]c2=S)c1 | nt | -5
CNC(=S)NCc1cccnc1 | nt | 7
Nc1cc(-c2ccccn2)[nH]n1 | -2.6 | 6
O=C(/C=C/c1cn(-c2ccccc2)nc1-c1cc2ccccc2o1)Nc1nc2ccccc2[nH]1 | nt | 4
Cc1cc(=O)c2cc(Br)ccc2[nH]1 | -0.1 | 1
CC12COC3(C(N)=O)CC1CCC32C (stereo unspecified) | -1.4 | -9
SMILES | MgrA-DNA mod | S aureus helic
Nc1nnc(N2CCc3ccccc32)s1 | nt | 18
Cc1cc(NCCC#N)ccc1Cl | nt | -6
Nc1cccnc1Oc1ccc(F)cc1 | -2.0 | nt
N#CC(C#N)=C1c2ccccc2-c2nc(C#N)c(C#N)nc21 | 9.4 | 15
COC(=O)c1ccc[nH]c1=S | 0.7 | 9
COC(=O)CNC(=O)c1cccnc1Sc1ccc(Cl)cc1 | -1.4 | nt
O=C(Nc1c(C(=O)N2CCCC2)oc2ccccc12)C1CCCCC1 | nt | 6
CCC1CCc2sc(-c3n[nH]c(=S)n3C)cc2C1 (stereo unspecified) | nt | 13
O=C(NCc1ccccc1F)c1cccc(N2C(=O)CCC2=O)c1 | nt | 10
CCc1nnc2sc(-c3ccc(OC)c(OC)c3)nn12 | -0.5 | nt
O=c1cc(N2CCCCC2)[nH]c(=O)n1C1CCCCC1 | 1.8 | 6
O=C(COc1ccc(Cl)cc1)N1CCN=C1SCc1cccnc1 | nt | 7
O=C(CSc1ncnc2c1nnn2Cc1ccccc1)Nc1ccccc1 | nt | 2
C=C(C)c1cccc(C(C)(C)NC(=O)NCc2ccc(OC)cc2)c1 | 1.1 | 15
N#CC(NC(=O)c1ccccc1)=C(Br)Br | nt | 12
CC1CCN(CCC(=O)Nc2ccccc2F)CC1 | -1.4 | 18
Cc1ccc(Nc2nc(C3CC3)cs2)cc1 | nt | 14
C=CCN(c1ccccc1)S(=O)(=O)c1ccc2c(c1)CC(C)N2C(=O)C1CC1 (stereo unspecified) | -0.5 | 3
CC(C)(C)OC(=O)N1CCC(c2cc(=O)n3[nH]c(-c4ccc(Cl)cc4)cc3n2)CC1 | nt | -13
O=[N+]([O-])c1cc(Cl)c(Sc2ccccc2)cc1Sc1ccccc1 | -4.6 | nt
O=C(O/N=C1\CCCc2[nH]c3ccccc3c21)c1ccc(Cl)cc1Cl | -0.2 | nt
CCC(Sc1nnc(-c2cc3occc3n2C)n1-c1ccccc1C)C(=O)Nc1ccc(C)cc1 (stereo unspecified) | -0.7 | 10
Cc1ccc(C(=O)c2ccc(CC(=O)O)n2C)cc1 | 34&3.0 | nt
C=CCc1c(C)nc(SCC(=O)c2ccc(Cl)cc2)[nH]c1=O | -2.0 | nt
O=C1CCCc2[nH]c(=O)c(C(=O)Nc3ccc(Cl)cc3)cc21 | nt | 8

The last 4 compounds of the part above open the next one.
SMILES | MgrA-DNA mod | S aureus helic
CCC(Sc1nnc(-c2cc3occc3n2C)n1-c1ccccc1C)C(=O)Nc1ccc(C)cc1 (stereo unspecified) | -0.7 | 10
Cc1ccc(C(=O)c2ccc(CC(=O)O)n2C)cc1 | 34&3.0 | nt
C=CCc1c(C)nc(SCC(=O)c2ccc(Cl)cc2)[nH]c1=O | -2.0 | nt
O=C1CCCc2[nH]c(=O)c(C(=O)Nc3ccc(Cl)cc3)cc21 | nt | 8
CC(=O)Nc1cccc(C(F)(F)F)c1 | -1.5 | nt
CCC(NC(C)=O)c1ccccc1 (stereo unspecified) | -0.9 | -5
Cc1nc(CSc2n[nH]c(C(F)(F)F)n2)cs1 | -3.0 | nt
O=C(COC(=O)Cc1c[nH]c2ccccc12)Nc1ccccc1C(=O)NC1CC1 | nt | -3
O=C(c1ccccc1)N(C(=O)c1ccccc1)c1nc2c(s1)CCCC2 | -0.2 | nt
CSc1n[nH]c(-c2ccc(Cl)cc2)c1C#N | -2.1 | nt
N#CC1=C(SCC(=O)NC2CCCCC2)NC(=O)CC1c1ccco1 (stereo unspecified) | nt | -24
NC(=O)COc1ccc(/C=c2/sc3nc4ccccc4n3c2=O)cc1 | 2.8 | 9
CSc1ccc(CCNC(=O)c2cc3c(s2)-c2ccccc2S(=O)(=O)C3)cc1 | -0.9 | 3
Cc1ccc(S(N)(=O)=O)cc1C(=O)NC1CCCCC1 | -2.5 | 3
O=C(Nc1nnc(SCc2cccc(F)c2)s1)c1ccccc1 | nt | -22
CCCN(Cc1ccco1)S(=O)(=O)c1ccc(OC)c(OC)c1 | 2.8 | nt
COc1ccc(OC)c(NC(=O)C2CC(=O)N(CCc3ccccc3)C2)c1 (stereo unspecified) | nt | 15
CCC(=O)Nc1ccc(S(=O)(=O)N(C)C2CCCCC2)cc1 | -1.2 | 9
Oc1ccc(/C=N/N2CCOCC2)cc1 | nt | 10
O=S1(=O)N=C(Nc2ccc(N3CCCCC3)c(Cl)c2)c2ccccc21 | nt | -9
Cc1cc(S(=O)(=O)Nc2ccnn2C)c(C)cc1Cl | -0.8 | nt
Cc1cccc(CNCc2ccc3c(c2)OCO3)c1 | -0.9 | 17
COc1ccccc1-c1nn(CCC#N)c2nc(C(F)(F)F)cc(C3CC3)c12 | -1.0 | 2
O=C(NC1CCCCC1)C1CCC(CNS(=O)(=O)c2ccccc2)CC1 (stereo unspecified) | 3.9 | 8
Cc1c(C)c(C)c(S(=O)(=O)N2CCCC2)c(C)c1C | 0.2 | nt
CSCc1c(C(=O)OC(C)C#N)oc2ccccc12 (stereo unspecified) | nt | 0
CCCn1cnc2scc(-c3ccccc3)c2c1=O | -2.5 | 7
CCC(Sc1nc2ncccc2o1)C(=O)NCc1ccc(C)cc1 (stereo unspecified) | nt | -13
CCCNc1ccccc1N | nt | 3

As entered above.
For MgrA-DNA mod, `CCCn1cnc2scc(-c3ccccc3)c2c1=O` has the entry -2.5
For S aureus helic, `Oc1ccc(/C=N/N2CCOCC2)cc1` has the entry 10
For MgrA-DNA mod, `CCC(=O)Nc1ccc(S(=O)(=O)N(C)C2CCCCC2)cc1` has the entry -1.2
For S aureus helic, `O=C(Nc1nnc(SCc2cccc(F)c2)s1)c1ccccc1` has the entry -22

Next entries follow.
SMILES | MgrA-DNA mod | S aureus helic
Cn1c(SCc2ccc(-c3csnn3)cc2)nnc1C(F)(F)F | -0.7 | nt
Cc1nc2c([nH]1)C1(CCC(c3ccccc3)CC1)C(C#N)=C(N)O2 (stereo unspecified) | -1.6 | 6
CN(n1cnc2ccccc2c1=O)S(C)(=O)=O | nt | 6
Cc1ccc(N=C2S/C(=C/c3cccc(OCC(=O)O)c3)C(=O)N2C)cc1C | 8.1 | 14
COC(=O)Nc1nccs1 | -2.7 | -3
OC(COc1ccc(F)cc1)CN1CCN(c2nccc(C(F)(F)F)n2)CC1 (stereo unspecified) | -1.6 | nt
Cn1nc(C(=O)N2CCc3ccccc32)c2c1-c1ccccc1S(=O)(=O)C2 | nt | -2
O=C(CC12CC3CC(CC(C3)C1)C2)N1CCCOC1 | -5.5 | 14
Cc1ccc2[nH]c(=O)c(C3=NN(C(=O)CCC(=O)O)C(c4ccccc4)C3)c(-c3ccccc3)c2c1 (stereo unspecified) | 0.5 | 10
Nc1ccccc1S(N)(=O)=O | -0.6 | nt
COc1ccccc1Nc1nn(CN2CCCCC2C)c(=S)s1 (stereo unspecified) | nt | 13
Cn1c(P(=O)(O)c2ccccc2)nc2ccccc21 | nt | 9
CC(=O)NCC12CC3CC(CC(C3)C1)C2 | 2.2 | 8
Cn1c(=O)c2[nH]c(NC3CCCC3)nc2n(C)c1=O | 0.0 | 17
Cn1nc(C(F)(F)F)c(-c2ccccc2)c1N1C(=O)CSCC1=O | 0.3 | nt
Cn1nc(-c2ccc(-c3ccn[nH]3)s2)cc1C(F)(F)F | 1.0 | nt
CNc1nc(C)c(C(=O)OCc2ccccc2)s1 | -0.8 | 5
COCc1cc(C)nc(SCC(=O)NC2C3CC4CC(C3)CC2C4)c1C#N (stereo unspecified) | -2.8 | 1
Cn1cnc2onc(C(=O)NC3CCCCC3)c2c1=O | nt | -17
CCOc1ccc(C(=O)OCC(=O)N2CCCC2)cc1 | -1.4 | -3
O=C(/C=C/c1cccs1)Nc1ccc(-c2nc3ccccc3[nH]2)cc1 | nt | -2
O=c1c2c([nH]c3ccccc13)C(=C1CCCC1)CC2 | 9.7 | 9
O=C(/C(=N\N=C\c1cccs1)c1ccccc1)c1ccccc1 | -2.6 | nt
Cc1cc(C(F)(F)F)nn1Cc1ccc(C(=O)Nc2ncc(Br)s2)o1 | 2.7 | 2
OC(C#CCN1CCCC1)c1ccccc1 (stereo unspecified) | -2.2 | 1
SMILES | MgrA-DNA mod | S aureus helic
O=C(COC(=O)c1ccccc1Br)Nc1ccccc1Cl | -2.2 | 23
O=C1Cc2cc(S(=O)(=O)N3CCCCC3)ccc2N1 | -1.4 | 4
Cc1cc(F)ccc1NCC(=O)Nc1ccc2c(c1)OCCO2 | nt | 10
CNC(=O)C12CC3(C)CC(C)(CC(C)(C3)C1)C2 | nt | 12
O=C(Nc1nc2n(n1)C(c1ccccc1)C=C(c1ccccc1)N2)c1ccco1 (stereo unspecified) | nt | 3
Cc1ccc2nc(CSc3nnc(-c4ccccc4)o3)cc(=O)n2c1 | nt | -5

Only part of the results is shown. The share of hits here may be higher or lower than overall.
